Screening data: PubChem BioAssay, ICCB-Longwood Screening Facility, Harvard Medical School
Polio RdRp inh: inhibitors of poliovirus RNA polymerase binding and polymerization; poliovirus polymerase elongation, fluorescence polarization; active compounds read low; % elongation, % (compound at 16.7 µg/mL); 150,000 compounds, 0.66% hits; in the data active = % elongation below about 90%; also: some results filed as inactive read as strong as hits
Target sequence (P03300 1749-2209 limits assumed): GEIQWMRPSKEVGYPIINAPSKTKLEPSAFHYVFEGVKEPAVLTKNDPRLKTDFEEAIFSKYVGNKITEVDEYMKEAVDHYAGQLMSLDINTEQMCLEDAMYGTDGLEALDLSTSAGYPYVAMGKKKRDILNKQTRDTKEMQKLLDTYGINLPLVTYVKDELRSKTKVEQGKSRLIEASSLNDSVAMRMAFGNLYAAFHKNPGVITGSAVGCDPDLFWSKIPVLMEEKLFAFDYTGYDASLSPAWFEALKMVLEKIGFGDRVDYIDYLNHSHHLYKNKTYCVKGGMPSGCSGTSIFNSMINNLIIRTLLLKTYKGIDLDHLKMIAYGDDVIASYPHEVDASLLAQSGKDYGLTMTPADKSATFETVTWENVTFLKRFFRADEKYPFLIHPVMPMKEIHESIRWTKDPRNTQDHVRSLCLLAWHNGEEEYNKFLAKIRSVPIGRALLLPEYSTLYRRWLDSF
Mtb MenB inh: blocks the Mycobacterium tuberculosis MenB enzyme; P9WNP5; MenB enzyme assay, absorbance read-out; some hits fall short of the stated cut; inhibition, %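 (about 12 µg/mL by stock and volumes)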; 100,000 compounds, 0.43% hits;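 active = mean of two replicates above 30%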;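 also: 0% = no compound and 100% = wells with inactive enzyme; the first replicate is given; strong numbers were not always called active; inactives centre near -10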
Target sequence (P9WNP5 whole entry, looked up): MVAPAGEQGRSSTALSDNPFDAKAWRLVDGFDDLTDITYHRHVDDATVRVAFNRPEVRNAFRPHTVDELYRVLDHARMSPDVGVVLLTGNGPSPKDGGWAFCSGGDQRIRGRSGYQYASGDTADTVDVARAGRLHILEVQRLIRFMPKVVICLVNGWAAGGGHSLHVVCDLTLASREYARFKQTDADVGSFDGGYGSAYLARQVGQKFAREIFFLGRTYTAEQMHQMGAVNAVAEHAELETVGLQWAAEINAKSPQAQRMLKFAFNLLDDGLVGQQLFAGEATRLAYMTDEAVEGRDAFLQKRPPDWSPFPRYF
Mtb MbtI inh: MbtI salicylate synthase inhibition; P9WFX0; purified MbtI enzyme, fluorescence intensity read-out; inhibition, %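 (about 17 µg/mL by stock and volumes)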; 100,000 compounds, 0.89% hits;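 active = above 50% in both replicates, above 80% if mildly self-fluorescent; inactive = the rest, strongly fluorescent compounds included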;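 also: 0% = mean of negative and 100% = mean of positive controls; one replicate is shown; some compounds called inactive have numbers as strong as hits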
Polio RdRp inh intensity: also measured in Polio RdRp inh; calls as there; % elongation; measured here: total intensity read-out; formula for this scale not given here;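 total fluorescence in place of polarization; lower means less elongation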
An asterisk follows results filed as active; x = no result given; & = joins results of further samples.

Order of values: Mtb MbtI inh, Polio RdRp inh intensity, Mtb MenB inh, Polio RdRp inh
(1) CCn1cnc2c1c(=O)n(CC(=O)Nc1cccc(OC)c1)c(=O)n2Cc1ccccc1
    25, 98, 7, 106
(2) CCc1ccc(-c2n[nH]c(=O)c3ccccc23)cc1
    0, 103, 5, 104
(3) C=CCOc1ccc(CNCc2cccnc2)cc1OC
    9, 102, 8, 100
(4) O=C(CC1OC(=O)c2ccccc21)Nc1ccccc1N1CCOCC1 (stereo not drawn)
    -5, 96, -28, 99
(5) NC(=O)c1ccccc1NC(=O)COCC(=O)O
    8, 100, -40, 104
(6) O=C1CCCC2=C1C(c1ccc(Cl)cc1)N=C(Nc1nc3ccccc3o1)N2 (stereo not drawn)
    -23, 100, -16, 100
(7) Cc1nn(-c2ccc(Cl)cc2)c2sc(C(=O)N3C(C)CCCC3C)cc12 (stereo not drawn)
    -8, 92, -15, 96
(8) CCC(C)NC(=O)c1cccc2c1C(=O)N(CC1CCCO1)C2 (stereo not drawn)
    4, 99, 4, 101
(9) Cc1cc(-c2ccc(S(=O)(=O)N3CCC4(CC3)OCCO4)s2)n[nH]1
    -7, 100, -14, 100
(10) O=C(OCCN1C(=O)c2ccccc2C1=O)c1cccs1
    -5, 103, -11, 101
(11) CC1(C)C2CCC1C(O)C2O (stereo not drawn)
    17, 96, 9, 103
(12) O=C(CN1c2cccc3cccc(c23)S1(=O)=O)NC1CC1
    2, 97, x, 102
(13) CC1=CC(=C2C(=O)NC(=O)NC2=O)C=C(C(F)(F)F)N1C(C)C
    -3, 101, -118, 100
(14) COC(=O)C(Cc1ccccc1)NC(=O)C1CC(=O)N(c2cccc(C)c2C)C1 (stereo not drawn)
    -10, 99, -25, 104
(15) Cc1noc(C)c1C(=O)NNc1ccccc1C(F)(F)F
    8, 103, -11, 104
(16) CN1CCC(N(C)C(=O)c2cccc(S(=O)(=O)N3CCN(c4ccccc4)CC3)c2)CC1
    2, 113, -8, 103
(17) COc1ccc(C(=O)ON2C(=O)CCC2=O)cc1
    -7, 99, 4, 101
(18) C=CCn1c(=O)/c(=C/c2ccc(C)o2)s/c1=C(/C#N)C(=O)c1ccccc1
    1, 239, -8, 46
(19) c1cncc(-c2csc(-c3cccnc3)n2)c1
    -40, 103, 0, 102
(20) CCOC(=O)c1c[nH]c2nc(C)ccc2c1=O
    -18, 145, 1, 82
(21) Cc1ccccc1-n1cnnc1SCC(=O)Nc1ccc(S(=O)(=O)N2CCCC2)cc1
    -10, 95, -11, 101
(22) COc1ccc(CN2CCN(C)CC2)cc1Br
    -9, 100, -19, 98
(23) Cc1cc(C(=O)OCC(=O)c2ccc(Br)s2)no1
    -6, 118, -24, 119
(24) O=C(C1CCN(S(=O)(=O)c2cccs2)CC1)N(c1ccccn1)C1CCCCC1
    12, 108, -2, 100
(25) CCN1CCSc2ccc(C(=O)NC(C)C)cc21
    -75, 103, -18, 102
(26) Cc1cc(F)ccc1NC(=O)CCc1nnc2ccc(N3CCC4(CC3)OCCO4)nn12
    14, 94, 17, 101
(27) Cc1ccc(S(=O)(=O)N2CCCCC2C(=O)N2CCCC3CCCCC32)cc1 (stereo not drawn)
    -8, 110, x, 106
(28) CCOC(=O)c1nccn1CC(=O)N(C)c1ccccc1
    2, 102, 14, 101
(29) COc1ccccc1NC(=O)C1c2cc(OC)c(OC)cc2C(=O)N(C)C1c1cccnc1 (stereo not drawn)
    12, 102, -56, 100
(30) O=C(O)CCn1cnc2ccccc2c1=O
    -1, 99, -17, 102
(31) Cc1ccc(Oc2ncccc2NC(=O)c2ccc(Cl)cc2Cl)c2c1CCC2
    -1, 104, 4, 99
(32) Cc1ccc(NC(=O)C2=C(C(=O)O)CCCC2)cc1Br
    -3, 103, -28, 101
(33) CCC(C)Sc1nnc(Cn2c(=O)sc3ccccc32)n1-c1ccc(OC)cc1 (stereo not drawn)
    -3, 100, -15, 101
(34) CCCc1cc(=O)[nH]c(SC(C)C(=O)NCc2ccccc2)n1 (stereo not drawn)
    -6, 112, -14, 100
(35) O=C(OCc1cc(=O)n2ccccc2n1)c1ccc(Cl)c(S(=O)(=O)N2CCCC2)c1
    52, 110, -2, 107
(36) COc1cc(CN(C)Cn2cnc3ccccc32)ccc1OC(F)F
    4, 107, -24, 101
(37) Nn1c(-c2ccccc2)nc2ccccc2c1=O
    x, 106, -8, 97
(38) C=CCOC(=O)OCn1c(=O)sc2ccccc21
    x, 104, -2, 107
(39) COc1ccc(CN2CCCCCC2)cc1
    -6, 104, 28, 98
(40) CCOC(=O)c1cc(C)nn1Cc1ccc(Cl)cc1
    -3, 101, -9, 99

Profiles, quoted from the list. Order of values: Mtb MbtI inh, Polio RdRp inh intensity, Mtb MenB inh, Polio RdRp inh
COc1cc(CN(C)Cn2cnc3ccccc32)ccc1OC(F)F is listed with 4, 107, -24, 101
O=C(OCc1cc(=O)n2ccccc2n1)c1ccc(Cl)c(S(=O)(=O)N2CCCC2)c1 is listed with 52, 110, -2, 107

The results go on:
Order of values: Mtb MbtI inh, Polio RdRp inh intensity, Mtb MenB inh, Polio RdRp inh
(41) C=CCn1cc(C(=O)N(C)CCCC)c(=O)c2cc(S(=O)(=O)N(CC)CC)ccc21
    1, 102, 4, 100
(42) c1ccc(CC2CCCCN2)cc1 (stereo not drawn)
    -6, 104, -6, 102
(43) COC(=O)C(C)Oc1ccc2c(c1)oc(=O)c1ccccc12 (stereo not drawn)
    70, 103, 2, 96
(44) CN1C(=O)C(=C(C#N)C#N)c2cc(Br)ccc21
    11, 105, 20, 103
(45) Cc1ccccc1-c1nsc(SCC(=O)N2CCCCC2)n1
    4, 99, -14, 101
(46) O=c1oc2ccccc2cc1-c1csc(NN=C2CCCC2)n1
    2, 102, -3, 100
(47) N#C/C(=C\c1ccco1)S(=O)(=O)c1ccc(Cl)cc1
    6, 103, -16, 102
(48) O=C(CSC1=NCCc2ccccc21)c1ccc(-c2ccccc2)cc1
    0, 86*, -25, 83*
(49) O=C(O)CCC(=O)N1CCC(O)(c2ccc3c(c2)OCO3)CC1
    -16, 104, 8, 103
(50) Cc1ccc(OCc2nc(SCC(=O)c3ccc4c(c3)OCO4)n[nH]2)cc1
    -2, 92, -16, 98
(51) C[C@H](NC(=O)Cc1cccc2ccccc12)C(=O)N1CCOCC1
    -16, 100, -46, 98
(52) CCCNC(=O)c1ccc(-c2ccccc2)s1
    88, 103, 2, 105
(53) CCC1CCCCN1C(=O)c1cn(C)c(=O)c2cc(OC)c(OC)cc12 (stereo not drawn)
    35, 104, -18, 100
(54) NC(=O)c1c(Nc2ccccc2)n[nH]c1N
    -5, 104, x, 100
(55) CC1(C)C2CC=C(/C=N/NC(=O)c3cccnc3)C1C2 (stereo not drawn)
    11, 109, 1, 108
(56) Cc1oc(C(C)(C)C)cc1C(=O)N1CCN(c2ncccc2C(F)(F)F)CC1
    -6, 106, -17, 107
(57) N#CC(C#N)=c1s/c(=C\c2ccc(-c3ccccc3Cl)o2)c(=O)n1-c1ccccc1
    -4, 230, -1, 46
(58) O=C(OCc1ccccc1)c1ccccn1
    -3, 102, x, 102
(59) Cc1ccc(N(CC(O)CN2C(=O)NC(C)(C)C2=O)S(=O)(=O)c2ccccc2)cc1 (stereo not drawn)
    x, 114, -8, 100
(60) Cc1cccc(NC(=O)c2cccc(N3C(=O)CCC3=O)c2)c1
    -5, 102, -6, 108

Two compounds picked at random from the list so far, as already listed:
Order of values: Mtb MbtI inh, Polio RdRp inh intensity, Mtb MenB inh, Polio RdRp inh
(45) Cc1ccccc1-c1nsc(SCC(=O)N2CCCCC2)n1
    4, 99, -14, 101
(50) Cc1ccc(OCc2nc(SCC(=O)c3ccc4c(c3)OCO4)n[nH]2)cc1
    -2, 92, -16, 98

(continued)
Order of values: Mtb MbtI inh, Polio RdRp inh intensity, Mtb MenB inh, Polio RdRp inh
(61) c1cncc(-c2nn[nH]n2)c1
    -5, 103, -7, 102
(62) COCCNC(=O)c1ccc(NC(=O)c2cccc(OC)c2)cc1
    17, 103, -15, 104
(63) C/C(=N\NC(N)=O)C1(C)N(O)C(C)(C)C(c2ccco2)=[N+]1[O-] (stereo not drawn)
    18, 97, -35, 104
(64) CCCCNC(=O)c1ccc2c(c1)NC(=O)CN2C
    48, 103, -16, 100
(65) O=C(Nc1cc(=O)c2ccccc2o1)OCc1ccccc1
    -135, 103, 7, 100
(66) O=C(NC1CCCCC1)NC1(C(=O)N2CCN3CCCC3C2)CCCCC1 (stereo not drawn)
    -14, 100, -16, 102
(67) CCOc1ccc(-c2nc(CNCCN3CCOCC3)cs2)cc1OC
    53, 107, -27, 102
(68) CC(=O)OCOC(c1cc([N+](=O)[O-])ccc1Oc1ccc(Br)cc1)[P+](=O)OCOC(C)=O (stereo not drawn)
    x, 103, -5, 100
(69) O=C(CSc1nc2cc(Cl)ccc2c(=O)n1Cc1ccco1)c1ccc(Cl)s1
    31, 111, -19, 106
(70) N#Cc1cn(CCCOc2ccccc2Cl)c2ccccc12
    6, 104, -30, 101
(71) Cc1ccnc(SCC(=O)c2ccc(Br)cc2)n1
    20, 99, -21, 101
(72) O=C(CSc1nc2[nH]ncc2c(=O)n1-c1ccccc1)c1ccc2c(c1)OCCO2
    6, 102, -29, 99
(73) O=C1CN(C(=O)Cc2ccsc2)c2ccccc2N1
    -29, 147, -2, 74
(74) CCn1c(Nc2ccccc2Cl)nc2ccccc21
    -5, 104, -59, 103
(75) NNC(=O)c1cn2cc(C(F)(F)F)cc(Cl)c2n1
    0, 104, 0, 99
(76) COc1ccc(N2COc3cc4c(cc3C2)OCO4)cc1
    11, 102, 8, 103
(77) CC(=O)Nc1ccc(S(=O)(=O)NC2CCCCC2C)cc1 (stereo not drawn)
    -14, 101, -31, 106
(78) CCN(CC)c1nc(C)nc2sc(C(=O)Nc3cc(Cl)ccc3OC)c(C)c12
    -6, 97, -14, 102
(79) O=C1CC2OCC=C3CN4CC[C@]56c7ccccc7N1C5[C@H]2[C@H]3CC46 (stereo partly drawn)
    -8, 102, -12, 102
(80) Fc1ccccc1Cn1nnc2ccccc21
    8, 102, -45, 100
(81) COc1ccc(-c2cc3c(=O)n(CC(=O)N(C)Cc4ccccc4)nc(C)n3n2)cc1
    68, 100, -20, 101
(82) O=C(O)CCNS(=O)(=O)c1ccccc1C(F)(F)F
    -1, 108, -21, 101
(83) CCCn1c(C)cc(/C=C(\C#N)C(N)=S)c1C
    -12, 116, -313, 101
(84) CCN(CC)C(=O)c1sc(NC(=S)NCCn2cc(Br)cn2)c(C(=O)OC)c1C
    -12, 103, -8, 101
(85) Cc1cccc(C)c1NC(=O)Cn1c(S(=O)(=O)CC(N)=O)nc2ccccc21
    5, 103, 8, 105
(86) Cc1ccccc1-c1nnc(C2CCN(S(=O)(=O)c3ccc4c(c3)CCCC4)CC2)o1
    10, 102, -6, 100
(87) Cc1ccc(Cl)c(NC(=O)COC(=O)c2ccncc2)c1Cl
    -12, 97, x, 102
(88) O=C(O)CNS(=O)(=O)Cc1ccccc1
    6, 100, -3, 102
(89) CCS(=O)(=O)CCn1c([N+](=O)[O-])cnc1C
    -2&-13, 102&98, 0&-2, 103&101
(90) C=CCNC(=O)CSc1nc2ccccc2o1
    -5, 108, 0, 109
(91) C/C(=N\O)C(=O)OC1CC(C)CCC1C(C)C (stereo not drawn)
    -12, 101, -24, 104
(92) O=S(=O)(c1ccc(N=C=S)cc1)N1CCOCC1
    41, 107, -8, 106
(93) CN1C(=O)CSc2ccc(NC(=O)N3CCC(N4CCCCC4)CC3)cc21
    -2, 103, -17, 105
(94) CN1C2CC(OC(=O)[C@H](CO)c3ccccc3)C[C@H]1[C@H]1OC21 (stereo partly drawn)
    -50, 101, -8, 101
(95) CNC(=O)c1ccc(N2CCSc3ccccc32)s1
    -156, 102, -22, 101
(96) CNC(=S)Nc1cc(C)ccn1
    14, 101, -11, 97
(97) N#CC1=C(SCC(=O)N2CCc3ccccc32)NC2=C(C(=O)CCC2)C1c1cccnc1 (stereo not drawn)
    15, 109, -26, 106
(98) O=C(CCCN1Cc2ccccc2C1)c1ccc(F)cc1
    x, 109, -5, 104
(99) CN(C(=O)COc1ccc(Oc2ccccc2)cc1)C1CCS(=O)(=O)C1 (stereo not drawn)
    -4, 106, -32, 100
(100) COc1ccc(-c2cc3c(S(=O)(=O)c4ccccc4)cc(NC(=O)c4ccco4)cc3n2C)cc1
    85, 105, -111, 104

Values by screen from above:
Mtb MenB inh, entries 89–98 → 0&-2, 0, -24, -8, -17, -8, -22, -11, -26, -5

(listing goes on)
Order of values: Mtb MbtI inh, Polio RdRp inh intensity, Mtb MenB inh, Polio RdRp inh
(101) O=C(NC1CCN(C(=O)c2ccc(Cl)cc2Cl)CC1)c1ccccc1
    -4, 108, -5, 106
(102) O=C(c1ccco1)N1CCN(C(=O)C2c3ccccc3C(=O)N3CCc4ccccc4C23)CC1 (stereo not drawn)
    -5, 102, -24, 102
(103) CC1=CCC(c2cnc(-c3ccccc3)c(C)c2)N(C)C1c1ccccc1 (stereo not drawn)
    23, 99, -8, 101
(104) N#Cc1nc(-c2ccccc2)oc1NCc1ccccc1
    99, 97, x, 101
